# KCNQ2 inh: KCNQ2 potassium channel inhibitors, primary screen, cell-based, CHO-K1, FluxOR thallium flux, B-score (AID 2156) | hit rate 1.1% among 310,000 | B-score at 10 µM | O88943 | 20 min; stronger effect = lower value; only compounds with negative scores are shown here; some inactives read as strong as hits;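 active = fluorescence ratio B-score at most minus 3 library SDs, with starting brightness B-score within 2 library SDs, cut at about -5.5 in these data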
# Target sequence (O88943 whole entry, looked up): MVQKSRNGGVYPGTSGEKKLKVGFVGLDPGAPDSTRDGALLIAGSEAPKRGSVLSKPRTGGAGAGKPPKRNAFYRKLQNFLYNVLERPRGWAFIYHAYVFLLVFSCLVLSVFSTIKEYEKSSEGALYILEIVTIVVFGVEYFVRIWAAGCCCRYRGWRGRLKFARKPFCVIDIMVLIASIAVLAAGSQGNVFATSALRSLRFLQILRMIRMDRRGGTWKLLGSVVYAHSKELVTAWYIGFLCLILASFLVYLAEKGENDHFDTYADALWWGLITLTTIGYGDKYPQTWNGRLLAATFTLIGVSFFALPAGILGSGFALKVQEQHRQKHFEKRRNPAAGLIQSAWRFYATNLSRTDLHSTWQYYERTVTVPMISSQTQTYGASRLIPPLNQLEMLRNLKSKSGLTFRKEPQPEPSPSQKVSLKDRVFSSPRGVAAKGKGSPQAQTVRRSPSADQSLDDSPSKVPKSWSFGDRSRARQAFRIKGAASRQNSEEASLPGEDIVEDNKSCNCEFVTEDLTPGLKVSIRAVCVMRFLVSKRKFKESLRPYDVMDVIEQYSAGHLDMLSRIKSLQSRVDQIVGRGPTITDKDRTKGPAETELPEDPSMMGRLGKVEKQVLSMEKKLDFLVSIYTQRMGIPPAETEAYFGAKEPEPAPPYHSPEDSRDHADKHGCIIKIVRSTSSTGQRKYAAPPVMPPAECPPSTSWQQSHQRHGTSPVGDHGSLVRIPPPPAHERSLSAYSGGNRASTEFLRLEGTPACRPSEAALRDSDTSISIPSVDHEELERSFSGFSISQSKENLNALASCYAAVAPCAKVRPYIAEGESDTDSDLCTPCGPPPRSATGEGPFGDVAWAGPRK
# KCNQ2 inh baseline: also measured in KCNQ2 inh; calls as there; B-score; measured here: initial fluorescence intensity artifact check;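 brightness before thallium and not channel activity; 0 = typical well and far values either way flag optical interference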
# Active calls of the source: *; i = inactive.
SMILES,KCNQ2 inh,KCNQ2 inh baseline
C/C(N)=C(/C#N)C(=O)COC(=O)C1=NN(c2ccccc2)C(=O)CC1,i,0.37
Cc1nn(-c2ccccc2)c(Cl)c1C1C(C#N)=C(N)Oc2c1c(C)nn2-c1ccccc1 (configuration not stated),i,0.23
CCOC(=O)N1CCN(C(=O)Cn2ncc3c2-c2ccccc2OC3)CC1,i,0.63
COc1ccc(CNC(=O)COC(=O)C2CCC(C(C)(C)C)CC2)cc1 (configuration not stated),i,-0.59
O=C(CN1CCOCC1)Nc1cccc(C(F)(F)F)c1,i,0.59
COc1cc(/C=N/NC(=O)CN(Cc2ccco2)S(=O)(=O)c2ccccc2)ccc1O,i,-0.14
N#CCCCSc1nnc(-c2ccc(Cl)cc2)n1-c1ccccc1,i,2.5
CN(Cc1nc(-c2cccs2)no1)CC1COCCO1 (configuration not stated),i,-0.01
OC1(c2ccccc2)C/C(=N\n2cnnc2)C=C1c1ccccc1 (configuration not stated),i,-0.43
CCOc1cccc2cc(C(=O)NCc3ccccc3)c(=N)oc12,i,0.02
C/C(=N\NC(=O)c1ccc([N+](=O)[O-])cc1)c1c(O)cc(C)oc1=O,i,-1.4
CC(C)(C)C1CCC(=NNC(=O)CC(=O)NCc2ccccc2)CC1 (configuration not stated),i,1.3
CC(=O)Nc1ccc(NC(=O)C2c3ccccc3Oc3ccccc32)cc1,i,0.71
CC(C)CCNc1nc2c(c(=O)[nH]c(=O)n2C)n1CC(O)COC(C)C (configuration not stated),i,2.1
CC(NC(=O)COc1ccccc1)C(c1ccccc1)N1CCN(C)CC1 (configuration not stated),i,-0.69
Cc1[nH]c2ccccc2c1/C=N/Nc1nc(Nc2ccc(F)cc2)nc(N2CCOCC2)n1,i,2
COC(=O)c1sc2ccccc2c1C(=O)OC,i,-1.7
CCCN(CC(=O)Nc1ccccc1C)C(=O)COc1ccc2c(c1)CCC2,i,0.21
CCc1ccc2nc3sc(C(=O)N4CCc5ccccc54)c(N)c3cc2c1,i,-0.13
CCn1c(=O)n(CC(=O)NCC2CCCO2)c(=O)c2c3c(sc21)COC(C)(C)C3 (configuration not stated),i,1.8
CCOC(=O)c1c(C)[nH]c(C)c1C(=O)COC(=O)CCOc1ccccc1OC,i,-0.23
CC(=O)c1ccc(N(C(=O)CNC(=O)c2ccco2)C(C(=O)NC2CCCC2)c2ccncc2)cc1 (configuration not stated),i,0.18
COc1ccc(CNC(=O)C2CCCN(S(=O)(=O)c3ccc4c(c3)CCCN4C(C)=O)C2)cc1 (configuration not stated),i,-0.36
COc1ccccc1N=NC1C(=O)N(C(N)=S)N=C1C (configuration not stated),i,-2.1
CCOc1ccc(N=C(C)C2=C(O)c3ccccc3C2=O)cc1,i,3
O=c1[nH]c(-[n+]2ccccc2)c(/C=N/NC([S-])=Nc2ccccc2)s1,i,1.6
CCOc1ccc(Br)cc1S(=O)(=O)Nc1ccccc1N1CCOCC1,i,0.74
O=C(NC(=S)Nc1ccc(Oc2ccc(Cl)cc2)cc1)c1ccccc1,i,1.3
CCn1c(NCc2c[nH]c3ccccc23)nc2ccccc21,-6.5*,-1.9*
CN(Cc1ccc(C(F)(F)F)cc1)C(=O)c1ccc(Oc2ccccc2)cc1,i,2.1

# 4 compounds drawn at random from the list so far, as already listed:
SMILES,KCNQ2 inh,KCNQ2 inh baseline
CCOc1ccc(N=C(C)C2=C(O)c3ccccc3C2=O)cc1,i,3
CCn1c(=O)n(CC(=O)NCC2CCCO2)c(=O)c2c3c(sc21)COC(C)(C)C3 (configuration not stated),i,1.8
COC(=O)c1sc2ccccc2c1C(=O)OC,i,-1.7
O=c1[nH]c(-[n+]2ccccc2)c(/C=N/NC([S-])=Nc2ccccc2)s1,i,1.6

# A draw from above in order of SMILES length, falling:
SMILES,KCNQ2 inh,KCNQ2 inh baseline
CCCN(CC(=O)Nc1ccccc1C)C(=O)COc1ccc2c(c1)CCC2,i,0.21
CC(=O)Nc1ccc(NC(=O)C2c3ccccc3Oc3ccccc32)cc1,i,0.71
OC1(c2ccccc2)C/C(=N\n2cnnc2)C=C1c1ccccc1 (configuration not stated),i,-0.43
COC(=O)c1sc2ccccc2c1C(=O)OC,i,-1.7

# Next section
SMILES,KCNQ2 inh,KCNQ2 inh baseline
CN(C)c1ccc(C(c2ccc(N(C)C)cc2)c2ccc([N+](=O)[O-])cc2)cc1,-6.6*,0.34*
COc1cc(/C=N/NC(=O)c2ccccc2)ccc1O,i,-0.43
CCOC(=O)CSc1nc2cc(C(=O)N3CCC(C(N)=O)CC3)ccc2c(=O)n1C1CCCCC1,i,-1.8
O=C(O)/C=C\C(=O)Nc1cc(O)ccc1[N+](=O)[O-],i,0.1
Cc1ccc(-c2nc(C3CCN(S(=O)(=O)c4ccc(C(C)(C)C)cc4)CC3)no2)cc1,i,3.8
Cc1ccc(Oc2ccccc2/C=C/C(=O)O)cc1,i,-0.2
CCCc1ccc(NS(=O)(=O)c2c(C)oc(C)c2C(=O)OC)cc1,i,1.8
COc1ccc(Br)cc1/C=N/n1c(COc2ccccc2)n[nH]c1=S,i,0.7
COc1ccccc1CNCC(O)Cn1c2ccccc2c2ccccc21 (configuration not stated),i,-1.1
Cc1cccc(C)c1NC(=O)CNC(=O)C(NC(=O)c1ccc(C(C)(C)C)cc1)C(C)C (configuration not stated),i,0.62
COc1ccc(OC)c(NC(=O)CSc2nc3ccccc3c3nc4ccccc4n23)c1,i,1.4
CC(C)(C)c1cc(P(=O)(c2ccccc2)c2ccccc2)ccc1O,i,-0.64
CCc1cc(=O)oc2cc(OCC(=O)NCC3CCC(C(=O)O)CC3)ccc12 (configuration not stated),i,-0.14
CN(C)S(=O)(=O)c1ccc(C(=O)Nc2nnc(-c3ccco3)o2)cc1,i,1.6
Cc1nnc(SCc2ccc(F)cc2)n1NC/C=C/c1ccccc1,i,-1.6
Cc1ccccc1NC(=O)CCS(=O)(=O)c1ccc(Br)s1,i,0.08
COC(=O)c1cc2ccccc2n1S(=O)(=O)c1ccccc1,i,-1.1
Oc1ccccc1N1CCN(CC(O)COC2CCCc3ccccc32)CC1 (configuration not stated),i,0.16
COc1ccc(-n2c(C)n[nH]c2=O)cc1,i,-0.04
COc1ccc(C2NC(=O)NC(C)=C2C(=O)OC2CCCCC2)cc1OC (configuration not stated),i,-0.06
Cc1ccc(OCCC(=O)OCC(=O)Nc2ccccc2)cc1,i,2.4
CC1(C)[C@@H](O)CC[C@]2(C)C3C(O)C=C4[C@H]5C[C@@](C)(CO)CC[C@]5(C)CC[C@]4(C)[C@]3(C)CC[C@@H]12 (some centres not stated),i,-0.89
COC(=O)c1cc(NC(=O)CN2CCN(C(C)=O)CC2)cc(C(=O)OC)c1,i,1.3
Cc1c(NS(=O)(=O)c2ccc3[nH]c(=O)[nH]c3c2)c(=O)n(-c2ccccc2)n1C,i,-1.6
COC(=O)c1oc2c(c1C)C(=O)CC(C)(C)C2,i,1.7
Cc1cnccc1CN(C)Cc1cn(C)nc1-c1ccc(Oc2ccccc2)cc1,i,-0.44
COc1ccc(Cl)cc1C(=O)NCc1cnn(C)c1C,i,-0.07
O=C1c2ccccc2C(=O)N1CC(O)COc1ccc(Br)cc1 (configuration not stated),i,1.1
CCCCN1CNC(=S)N(Cc2ccccc2)C1,i,-1
COc1ccc(C2=CC(c3ccc(F)cc3)n3nnnc3N2)cc1 (configuration not stated),i,1.1
CCOC(=O)c1nn(-c2ccc(Cl)cc2)c2nc(-c3ccc(C)cc3)c(C#N)c(=O)n12,i,-3.6
Cc1ccc(/C(N)=N/OC(=O)N2c3ccccc3Sc3ccccc32)cc1,-8.5*,1.8*
N#Cc1c(N)nc2c(c1-c1ccco1)CCCCC2,i,-2.5
COc1ccc(NC(C)=O)cc1S(=O)(=O)NC(Cc1ccccc1)C(=O)O (configuration not stated),i,-2.5
Cc1cccc(NC(=S)NC(=O)Cc2ccccc2)c1C,i,-0.09
O=C(CO/N=C/c1cccc([N+](=O)[O-])c1)Nc1ccc2ccccc2c1,i,0.7
O=C(COC(=O)c1cc(F)cc(F)c1)Nc1cccnc1Cl,i,0.45
CC(C)(C)NC(=O)c1cccc2c1C(=O)c1ccccc1-2,i,-1.5
COc1cc(C(=O)OCC(C)=O)cc(NC(=O)c2ccco2)c1OC,i,-0.49
C[C@@H]1CC=C[C@H]2[C@H]1C(=O)N(Cc1ccccc1)[C@H]2c1ccc(/C=C/c2ccccc2)cc1F,i,1
CCOc1ccccc1N1CCN(c2nc3ccccc3nc2C(C#N)C(=O)OC(C)C)CC1 (configuration not stated),i,0.61
CCOC(=O)N1CCN(CC(=O)c2ccc3c(c2)CCN3C(C)=O)CC1,i,-0.44
C=CCn1c(SCC(=O)Nc2cccnc2Cl)nnc1-c1ccccc1F,i,0.71
COc1ccc(CCn2c(=N)c(S(=O)(=O)c3ccccc3)cc3c(=O)n4ccccc4nc32)cc1,i,0.34
Cc1cc(C)c(S(=O)(=O)NCc2ccccn2)cc1C,i,0.7
O=C(CN1CCN(S(=O)(=O)c2ccc(Cl)cc2)CC1)Nc1ccc2c(c1)CCC2,i,0.25
CC(=O)c1cccc(NC(=S)N2c3ccccc3CC2C)c1 (configuration not stated),i,0.68
CCOc1ccc(NC(=O)CCCn2c(=S)[nH]c3ccsc3c2=O)cc1,i,-0.98
O=C(Nc1ccccc1)N1CCc2scc[n+]2-c2ccccc21,i,-0.45
O=C(Cn1cnc2sc(-c3ccccc3)cc2c1=O)NCCc1ccccc1,i,-0.56
Cc1ccc(NC(=O)CN(C)C(=O)c2cccc(Br)c2)cc1,i,-3.6
COc1cc(OC)c2c(-c3ccccc3)cc(=O)oc2c1C(CC(=O)N1CCN(c2ccccc2)CC1)c1ccc(N(C)C)cc1 (configuration not stated),i,0.77
Cc1cc(=O)oc2cc(OC(C)C(=O)NCc3ccccn3)ccc12 (configuration not stated),i,0.37
CCc1cc(C(=O)COc2ccc(F)cc2)c(O)cc1O,i,-0.43
CC(C)c1nc2c([nH]1)c(=O)n(C)c(=O)n2C,i,1.5
C1=CCC(CN2CCNCC2)CC1 (configuration not stated),i,0.12
O=c1cc(CN2CCN(c3cccc(Cl)c3)CC2)c2cc3c(cc2o1)CCCC3,i,-1.1
CCOC(=O)C1CCN(c2ccc(C(=O)O)cc2[N+](=O)[O-])CC1,i,0.03
O=C(NCCCO)C(=O)c1c(-c2ccccc2)cc2ccccn12,i,1.1
O=C(CN1CCN(S(=O)(=O)c2ccc(F)cc2)CC1)Nc1ccc(F)cc1F,i,1.9

# (further entries)
SMILES,KCNQ2 inh,KCNQ2 inh baseline
O=C(COC(=O)C1CCN(c2ccc(C(F)(F)F)cn2)CC1)Nc1cccc(F)c1,i,1.9
CCOC(=O)c1c(NC(=O)c2ccccc2Br)sc2c1CCc1ccccc1-2,i,-0.99
CCN1CCN(C(=O)C2=C(C(=O)O)CCCC2)CC1,i,1.9
C=CCOC(=O)C1=C(C)N=C2SCCC(=O)N2C1/C=C/c1ccccc1OC (configuration not stated),i,-2
O=C(/C=C/c1ccc2c(c1)OCO2)Nc1nc(-c2ccc(F)cc2)cs1,i,-0.56
Cc1ccc(Nc2nc(C)cc(C)n2)c(Br)c1,i,0.77
Cc1ccc(-n2c3c(cc(C(=O)NCc4ccco4)c2=O)C(=O)CCC3)cc1,i,-2.6
COC(=O)c1ccc(NC(=O)CS(=O)(=O)c2ccccc2)cc1,i,1.1
CC(=O)c1ccc(N2CCN(C(=O)c3nn(Cc4ccccc4)c(=O)c4ccccc34)CC2)cc1,i,-0.3
CCOc1c(Br)cc(CNC2CCCCCCC2)cc1OC,i,-0.17
O=C(O)c1cc2n(n1)CCN(Cc1ccccc1Cl)C2=O,i,1.5
Cc1cccc(C(=O)C2CCOC(C)(C)C2)c1 (configuration not stated),i,1.3
O=C(NCCOc1ccccc1Cl)C(=O)NCCOc1ccccc1Cl,i,-0.04
COc1ccc(OCC(=O)O/N=C(\N)Cc2ccc(Cl)cc2)cc1,i,0.67
Cn1c(=O)oc2cc(S(=O)(=O)NCCN3CCCCCC3)ccc21,i,0.04

# Complete entries, looked up by structure. Order of screens: KCNQ2 inh | KCNQ2 inh baseline
# Profile of `Cc1cccc(C(=O)C2CCOC(C)(C)C2)c1` (configuration not stated) : i | 1.3
# Profile of `CCN1CCN(C(=O)C2=C(C(=O)O)CCCC2)CC1` : i | 1.9

# (list continues)
SMILES,KCNQ2 inh,KCNQ2 inh baseline
C[C@H](NC(=O)c1nc[nH]c1C(=O)NCC(=O)OCc1ccccc1)C(=O)OC(C)(C)C,i,0.47
Cc1nc2ccccc2nc1OCC(=O)Nc1cc(C(F)(F)F)ccc1N1CCOCC1,i,-0.02
CC(=O)Nc1ccc(-c2csc(NC(=O)c3ccc(C)o3)n2)cc1,i,-0.07
Cc1cc(C)c(C(=O)C(C)OC(=O)c2ccc(Cl)nc2)cc1C (configuration not stated),i,-0.21
O=C(c1cc(C(=O)NCCc2ccccc2)c(=O)n(CCc2ccccc2)c1)c1cc(Cl)ccc1O,-6.4*,1.4*
COc1ccc2oc(=O)c(C(=O)N3CCCC3)cc2c1,i,-0.27
COC(=O)c1ccc(Cl)c(NC(=O)NC23CC4CC(CC(C4)C2)C3)c1,i,0.44
CC(=O)Nc1ccc(NC(=O)C(C)OC(=O)c2cccc(S(=O)(=O)N3CCCC3)c2)cc1 (configuration not stated),i,-0.84
COC(=O)c1cc2occc2n1Cc1nc(-c2cccc(Cl)c2)oc1C,i,-1.1
Nc1nc(NCc2ccccc2)n(-c2ccccc2)n1,i,2

# Some of the compounds tested, so the mix of outcomes need not match the whole.
